# StopGo RLuc: FMDV 2A StopGo reporter, Renilla signal; actives 0.32% (n = 120,000); AID 1745857; HEK cells with a luciferase reporter of 2A StopGo recoding; Potency, µM (titrated, usually from 57.5 µM), for the others: at the top dose signal change, negative = less light; active means well fitted falling curve with a large enough effect; inconclusive means small, poorly fitted or top-dose-only effect; inactive means no such curve, though single readings can be large or run the other way; further: nearly all actives have a fitted effect of over 55% in size; overnight with compound
# StopGo FLuc: lowers the firefly signal of an FMDV 2A StopGo reporter | HEK cells with a luciferase reporter of 2A StopGo recoding | Potency, µM (highest dose often 57.5 µM), for the others: at the top dose signal change, negative = less light | actives 0.23% (n = 120,000) | AID 1745856; active = well fitted falling curve with a large enough effect; inconclusive = small, poorly fitted or top-dose-only effect; inactive = no such curve, though single readings can be large or run the other way; further: nearly all actives have a fitted effect of over 60% in size; overnight with compound
# The depositor's hits bear a star; ? = inconclusive; & = joins results of further samples; [ ] = remark or other dose. On the % scale 0 is the no-effect control and ±100 the full control effect; potency means the concentration at half of the fitted maximal effect. An excerpt; the hit share may differ from the screen's.
SMILES,StopGo RLuc,StopGo FLuc
CCOC(=O)COc1ccc(F)cc1C(=O)c1ccn2nc(-c3ccc(Cl)cc3)cc2n1,-7.7%,-7.0%
Cc1ccc(CN2CCC(CNC(=O)c3cccc4c3SCCC4=O)CC2)cc1,-13.2%,-7.4%
Cc1ccc(C)n1-c1c(C(=O)NCCC(C)C)sc2ncccc12,27.5%,109.6%[activator]
CCN(CC)c1nc2c(c(=O)[nH]c(=O)n2C)n1CC(O)COc1ccc(C)cc1 (centres undefined),-5.4%,-6.7%
COc1ccccc1C(=O)OC1=CN(C(C)C)S(=O)(=O)c2ccccc21,-10.7%,24.6%
COC(=O)[C@H](CC(C)C)N(CCc1cn(Cc2ccc(C)cc2)nn1)S(=O)(=O)c1ccccc1Br,50.7%[activator],-4.8%
O=C(CSc1nc(=O)[nH]c2c1CCC2)NCc1ccccc1,-1.4%,-16.2%
Oc1ccc(Nc2nc(-c3ccc(F)cc3F)cs2)cc1,-14.9%,0.0%
CC(OC(=O)c1ccc(O)cc1)C(=O)Nc1ccccc1OC(F)F (centres undefined),10.1%,17.6%
COc1ccc(C(CNC(=O)CNC(C)(C)C)c2c[nH]c3ccccc23)cc1 (centres undefined),16.0%,0.5%
Cc1c(NC(=O)CC2CCCCC2)cccc1-c1nc2cccnc2s1,-1.8%,45.2%[activator]
CC(C)(C)c1nc(CSc2n[nH]c(-c3ccccc3Br)n2)no1,19.5%,36.5%[activator]
O=C(Cn1c(=O)[nH]c2c(-c3ccccc3F)c[nH]c2c1=O)NCc1cccnc1,-12.6%,-14.8%
COc1ccc(/C=C/c2nc(C#N)c(N3CCCCCC3)o2)cc1OC,12.2%,13.5%
COc1ccc(S(=O)(=O)N(CCc2ccccc2)CC(=O)NCc2ccccc2)cc1,5.9%,-10.9%
CN(CCC(=O)NC(=O)NCc1ccccc1)Cc1ccccc1,-11.9%,-11.2%
CCOc1ccc(C(=O)N(Cc2cccc(Cl)c2)c2ccccn2)cc1,-15.4%,?
CC(C)(C)c1ccc(C(=O)Nc2ccc3c(c2)CCCN3C(=O)c2cccs2)cc1,?,-19.0%
O=C(Nc1ccc(F)c(F)c1)C1CCN(c2nc3ccccc3o2)CC1,?,?
COc1ccc(CCCc2nnc(SCC(=O)Nc3ccc(F)cc3)o2)cc1C,9.3%&-12.1%,47.7%&-12.8%[activator]
Cc1cccc(NC(=O)C2Cc3ccc(C)cc3S2)c1 (centres undefined),9.6%,142.1%[activator]
CCCCCOc1ccc(/C=C2\CCC(C3CCCC3)C2=O)cc1 (centres undefined),9.0%,-3.5%
Cn1c(=O)c2c(ncn2Cc2ccc(F)cc2)n(C)c1=O,-6.1%,8.1%
Cc1ccc(NC(=O)C2CCN(c3nc4ccccc4nc3C(F)(F)F)CC2)cc1F,-4.2%,-11.8%

# A section from the list above, as a working copy:
SMILES,StopGo RLuc,StopGo FLuc
O=C(Cn1c(=O)[nH]c2c(-c3ccccc3F)c[nH]c2c1=O)NCc1cccnc1,-12.6%,-14.8%
COc1ccc(/C=C/c2nc(C#N)c(N3CCCCCC3)o2)cc1OC,12.2%,13.5%
COc1ccc(S(=O)(=O)N(CCc2ccccc2)CC(=O)NCc2ccccc2)cc1,5.9%,-10.9%
CN(CCC(=O)NC(=O)NCc1ccccc1)Cc1ccccc1,-11.9%,-11.2%
CCOc1ccc(C(=O)N(Cc2cccc(Cl)c2)c2ccccn2)cc1,-15.4%,?
CC(C)(C)c1ccc(C(=O)Nc2ccc3c(c2)CCCN3C(=O)c2cccs2)cc1,?,-19.0%
O=C(Nc1ccc(F)c(F)c1)C1CCN(c2nc3ccccc3o2)CC1,?,?

# Additional records:
SMILES,StopGo RLuc,StopGo FLuc
C[C@@H]1CN(CCCn2c3ccccc3c3ccccc32)C[C@H](C)N1,?,13.3%[11.5 µM]
CCOCCCNC(=O)C(CC)c1ccccc1 (centres undefined),-0.7%,13.1%
CC(=O)N(c1nc(CSc2nnc(C3CC3)n2C2CC2)cs1)c1ccc(C)cc1C,11.6%,19.2%
CCc1nc2ccccc2n1CCCCOc1ccc(Cl)cc1,?,?
COc1ccc(CN(C(=O)c2cc(=O)[nH]c3ccc(S(=O)(=O)N4CCOCC4)cc23)C2CC2)cc1,13.8%,13.8%
COc1ccc2oc(-c3ccc(C)c(NC(=O)Cc4ccc(Cl)cc4)c3)nc2c1,-18.6%,-12.5%
COc1ccc(NC(=O)Cn2c(=O)n(-c3ccccc3)c(=O)c3ccc(C(=O)NCc4ccc5c(c4)OCO5)cc32)cc1,6.8%,-21.1%
CCOc1ccccc1NC(=O)c1cc2cc(OC)ccc2oc1=O,-11.4%,20.5%
CC1=C2NC(N)=[N+](Cc3ccc4c(c3)OCO4)CC2n2c(=O)n(-c3ccccc3)c(=O)n2C1 (centres undefined),-14.9%,-14.8%
COc1ccc(C(=O)Nc2nnc(S(=O)(=O)N3CCOCC3)s2)cc1,-12.3%,11.7%
CC(NC(=S)NCCc1ccccc1)c1ccc(C(C)(C)C)cc1 (centres undefined),29.4%,-13.0%
O=S(=O)(c1cccs1)N1CCn2cccc2C1c1ccccc1F (centres undefined),52.5%[activator],13.5%
CCOC(=O)c1cccc(NC(=O)c2ncoc2-c2ccco2)c1,48.5%[activator],147.7%[activator]
CC1CCN(c2nc3ccc(C(=O)NCc4ccc(Cl)cc4)cc3s2)CC1,16.3%,?
COc1cc(/C=C(\C)[N+](=O)[O-])cc(Br)c1O,?,?
CCN(CC)CCC1S(=O)(=O)CC(c2ccccc2)CS1(=O)=O (centres undefined),16.9%,10.4%
CC(C)Cn1cc(NC(=O)N2CCN(c3cccc(C(F)(F)F)c3)CC2)c2ccccc2c1=O,-14.6%,-12.9%
CCOc1ccc(C2CC(=O)Nc3nc(SCc4ccccc4C)[nH]c(=O)c32)cc1OC (centres undefined),17.4%,42.8%[activator]
CCOc1ccc(CNC(=O)C2CCN(S(=O)(=O)c3c(C)noc3/C=C/c3ccc(C)cc3)CC2)cc1OC,-2.6%,-16.3%
CC(NC(=O)CSc1ccc2c(c1)OCCCO2)c1cc2ccccc2o1 (centres undefined),12.5%,4.4%
Cc1cc(C(F)F)nn1Cc1nc2c3c4c(sc3ncn2n1)CC(C)CC4 (centres undefined),-6.8%,-0.1%
COc1ccc(-c2c(C)nn3c(N4CCN(c5ccccc5)CC4)cc(C)nc23)cc1OC,-13.8%,-15.5%
COc1cc(C)c(Cc2cnc(N)nc2N)cc1OC,-11.7%,-15.9%
CN(CCC#N)C(=O)CSc1ncc(-c2ccc(Cl)cc2)o1,-0.9%,150.9%[activator]
Fc1ccccc1CSc1nnc(-c2ccccc2F)n1C1CC1,-1.8%,8.4%
CC(C)(C)c1ccccc1NC(=O)c1ccc2ccccc2n1,4.8%,195.9%[activator]
CCNc1nc(SCC(=O)Nc2cc(C)on2)nc2ccccc12,1.1%,8.7%
CCCCN1C(C)=NS(=O)(=O)c2cc(C(=O)Nc3ccc(OCC)cc3)ccc21,15.6%,18.1%
O=S(=O)(CCN1CCOC(c2ccccc2)C1)c1ccccc1 (centres undefined),-3.8%,-8.1%
COc1cccc(-c2nnc(SCC3CCOCO3)n2-c2ccc(C)cc2)c1 (centres undefined),7.3%,6.6%
CN(CC(=O)Nc1cc(C(F)(F)F)cc(C(F)(F)F)c1)C1CCCCC1,-3.0%[1.06 µM],0.1%
O=C(CCc1c[nH]c2ccccc12)Nc1ccc(F)c(F)c1F,8.2%,0.0%
CC(C)c1ccc(NC(=O)c2cc(S(=O)(=O)NCCC3=CCCCC3)ccc2F)cc1,29.4%,?
CC(=O)Nc1cccc(NC(=O)c2cc3c(=O)n4cccc(C)c4nc3n2C)c1,-13.6%,10.9%
CC(C)(C)c1ccc(C(=O)N2CCC(c3nc4ccccc4o3)CC2)cc1,71.8%&52.1%[activator],82.6%&57.4%[activator]
Cc1nc(Nc2nc(CSc3nc4ccccc4[nH]3)cc(=O)[nH]2)nc2ccccc12,45.4%[activator],31.1%[activator]
CC(Nc1ccc([N+](=O)[O-])c2nonc12)c1ccccc1Cl (centres undefined),-22.2%,-20.9%
Cn1c(=O)[nH]c(=O)c2c1nc(SCC(=O)Nc1ccccc1)n2Cc1ccccc1Cl,4.4%,-4.1%
COC(=O)c1ccccc1S(=O)(=O)N1CCC(C(=O)NCCc2ccco2)CC1,-3.7%,7.0%
COc1ccc(CNC(=O)CCc2c(C)nn(-c3ccc(N4CCCCC4)nn3)c2C)cc1,-1.9%,-16.5%
Cc1ccc(Cl)cc1N1CCN(CC(=O)NC2CCCCC2)CC1,-10.0%,-10.4%
CCOC(=O)Cn1nc(-c2ccccc2)c2ccccc2c1=O,22.1%,42.6%[activator]
CCC(CC)C(=O)Nc1cccc(-c2nc3cccnc3s2)c1C,-30.3%,69.3%[activator]
COc1cccc(Cn2cc(S(=O)(=O)c3ccc(C)cc3)c(=O)c3cc4c(cc32)OCO4)c1,47.1%[activator],25.6%
CSc1cccc(NC(=O)Cn2ncn3c(cc4ccccc43)c2=O)c1,-11.4%,-9.0%
CCOc1ccc(-c2nc3cc(NC(=O)COc4ccccc4C)ccc3o2)cc1,3.5%,16.9%
CN(C)c1ccc(NC(=O)CN2CCN(CC(=O)Nc3ccc(Br)cc3)CC2)cc1,-9.1%,-19.2%
Cc1cccc(NC(=O)c2cccc(OCc3c(C)noc3C)c2)c1,20.2%,87.2%[activator]
CCOc1ccc(C(=O)Nc2ccc(S(=O)(=O)Nc3nc(C)cc(C)n3)cc2)cc1OC,3.1%,2.5%
Cc1cccc(NC(=O)C2(c3ccc(Br)cc3)CC2)n1,10.9%,25.6%
Cc1ccc(OCC(=O)Nc2ccc(N3CCN(S(C)(=O)=O)CC3)cc2)cc1Cl,-0.6%,2.4%
COc1ccc(N2CCN(C(=O)c3cnc(SC)nc3C)CC2)cc1,-0.6%,-3.9%
CC(C)c1ccc(NC(=O)c2cc3c(s2)CCC3)cc1,-9.8%,129.3%[activator]
Cc1cc(C)cc(NC(=O)CSCc2cc(=O)c3ccccc3[nH]2)c1,4.5%,24.6%
CCCCCCCOc1ccc(S(=O)(=O)c2ccc(OCCCCCCC)cc2)cc1,-20.8%,-1.2%
CNC(=O)NC(=O)CN1CCOC(c2ccc(F)cc2)C1 (centres undefined),-13.9%,-3.4%
COc1cccc2sc(NC(=O)CSc3nncn3-c3ccc(C)cc3)nc12,-14.4%,40.6%[activator]
O=C(CSc1nc2c(oc3ccccc32)c(=O)[nH]1)Nc1cccc(Cl)c1,-28.6%,151.2%[activator]
NCC1(Nc2ccccc2)CCCCC1,-1.3%,-4.4%
NC(=O)c1nn2c(C(F)(F)F)cc(-c3ccc(Br)cc3)nc2c1Cl,21.1%,15.4%

# Later entries:
SMILES,StopGo RLuc,StopGo FLuc
CCCNc1c(NC(=O)c2ccccc2)c(=O)oc2ccccc12,-3.7%,0.2%
COc1ccc(C(=O)NCCc2csc(-c3cccs3)n2)cc1,22.1%,111.6%[activator]
CCc1ccc(S(=O)(=O)c2cn(Cc3ccccc3F)c3cc(OC)c(OC)cc3c2=O)cc1,0.0%,-11.8%
Cc1ccc(C(=O)C(OC(=O)c2cccc(N(C)C)c2)c2ccc(C)cc2)cc1 (centres undefined),30.8%[activator],53.1%[activator]
Cn1nc(-c2ccc(C(=O)Nc3ccc(F)cc3)cc2)c2ccccc2c1=O,6.8%&6.0%,14.5%&11.8%
CCOc1ccc2nc(Cl)c(C3CC(c4ccc(C)cc4)=NN3C(=O)CCC(=O)O)cc2c1 (centres undefined),-6.3%,-15.6%
O=C(NCCc1ccccn1)c1ccc(I)cc1,8.9%,-20.1%
COc1ccc(OCC(=O)N(Cc2cccs2)c2ccc(OC)cc2)cc1,29.9%,-3.3%
CCOC(=O)c1c(C)n(-c2ccccc2)c2ccc(OC(=O)c3cccc(Cl)c3)cc12,11.1%,-10.9%
CC1(C)NC(=O)N(CCCC(=O)Nc2cccc3cccnc23)C1=O,2.8%,18.8%
CCc1ccc(NC(=O)CSc2nc(-c3cccc(OC)c3)nc3c2Cc2c(CO)cnc(C)c2O3)cc1,-17.7%,-21.6%
Cc1ccc(CSc2nc(=O)c3c(C)cc(C)nc3n2C2CC2)cc1,-14.9%,-12.6%
CCOc1ccccc1Nc1ccc2cc(S(=O)(=O)N3CCCCC3)ccc2n1,58.1%[activator],20.2%
Cc1cc(=O)n(C(C)C(=O)N2CCCc3ccccc32)c2c1c(C)nn2-c1ccccc1 (centres undefined),5.7%,-8.8%
NS(=O)(=O)c1ccc(CCNC(=O)c2ccc3nc(CCc4ccccc4)oc3c2)cc1,0.0%,89.9%[activator]
Fc1cccc(-c2nnn3c2nc(NC2CCCCC2)c2ccccc23)c1,-4.3%,128.1%[activator]
CCCc1cc(=O)oc2cc(C)c3c(-c4ccccc4)coc3c12,-10.3%,-4.2%
COc1cccc(Nc2nc3cc(OC)ccc3nc2NS(=O)(=O)c2ccc(Cl)cc2)c1,13.8%,23.4%
CCc1cccc(NC(=O)Cn2nc(CC)n3c(cc4cc(C)ccc43)c2=O)c1,0.0%,28.8%
CN(C)S(=O)(=O)c1cc(NC(=O)c2nn(-c3ccccc3)c(=O)c3ccccc23)ccc1Cl,-2.3%,-9.4%

# Screening data as filed in PubChem.
